Compound activity: PubChem, Broad Institute
YB-1 expression: YB-1 expression inhibition. U2OS, qRT-PCR YB-1 vs CDIP delta delta Cp, 16 h; active compounds read high; zero = DMSO, each unit about twofold. delta delta Cp (YB-1 minus CDIP) (concentration not given with the values). hit rate 0.37% among 30,000. AID 434959;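 active = delta delta Cp rounded down to an integer at or above 3, about 3 SD of DMSO wells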;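 also: higher means less YB-1 transcript or more CDIP transcript relative to DMSO; stock transfer was 100 nL into about 100 µL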
MITF inh: blocks MITF activity; TRPM1 promoter luciferase, luminescence, 24 h; inhibition, % (test concentration not listed); hit rate 0.28% among 37,000;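 active = most replicates at 85% or more, or half of them and the mean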;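 also: human melanocyte line stably carrying TRPM1 promoter luciferase reporter; 0% = vehicle wells and 100% = a positive control; the first replicate is given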
Hedgehog inh: Sonic Hedgehog pathway inhibition; Shh-LIGHT2 Gli-luciferase reporter, 30 h; inhibition, % (no concentration beside the values); hit rate 2.1% among 22,000; AID 2313;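 active = replicate mean of 65% or more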;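 also: pathway switched on by Shh-conditioned medium diluted 1 in 25 in low serum; 100 nL library stock added to about 40 µL; 0% = median of neutral wells and 100% = positive control level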
PD-1 reversal: reversal of PD-1 mediated T-cell inhibition. primary human CD4 T cells, PD-L1 beads, CellTiter-Glo 96 h. activation, % (no concentration beside the values). 29,000 tested, under 10 active;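 active = replicate mean of 50% or more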;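 also: 0% = median vehicle wells and 100% = positive control; 100 nL library stock added to about 50 µL; numbers are from one replicate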
Numbers without * were called inactive; / = not tested or not shown. Not all compounds are listed, so the mix of outcomes need not match the whole.

item	SMILES	YB-1 expression	MITF inh	Hedgehog inh	PD-1 reversal
1	C/C=C(\C)C(=O)O[C@@H]1[C@@H](OC(C)=O)C2[C@@]3(C)CC[C@H](OC4CC(OC)C(OC5CC(OC)C(OC6CC(OC)C(OC7OC(C)C(OC8OC(CO)C(O)C(O)C8O)C(OC)C7O)C(C)O6)C(C)O5)C(C)O4)CC3=CC[C@@]2(O)[C@@]2(O)CC[C@H](C(C)=O)[C@@]12C (stereo partly drawn)	-0.22	-9	3	0.5
2	COc1ccc(NC(=O)Nc2cccc3c2O[C@@H](CN(C)S(=O)(=O)c2ccc(Cl)cc2)[C@H](C)CN([C@@H](C)CO)C3=O)cc1	-0.41	-3	-34	-0.8
3	Cc1ccc(S(=O)(=O)Nc2ccc3c(c2)C(=O)N([C@@H](C)CO)C[C@H](C)[C@H](CN(C)C(=O)Nc2ccc(F)cc2)O3)cc1	-0.26	-4	/	-5.1
4	C[C@@H]1CN([C@H](C)CO)C(=O)c2cc(NS(=O)(=O)c3ccccc3)ccc2O[C@H]1CN(C)C(=O)Nc1ccc(C(F)(F)F)cc1	-0.082	8	/	-2.7
5	CC(C)NC(=O)N(C)C[C@H]1Oc2c(NC(=O)Nc3ccccc3)cccc2C(=O)N([C@H](C)CO)C[C@@H]1C	0.018	-8	19	/
6	COC(=O)c1ccc(C(=O)NN)cc1	-0.58	12	4	1.0
7	Cc1cc(C)c(NC(=O)CN(c2ccc(Cl)cc2)S(C)(=O)=O)c(C)c1	/	11	/	2.7
8	CS(=O)(=NC(=O)Nc1ccccc1)c1ccccc1 (stereo not drawn)	-0.35	-5	-17	1.1
9	C[C@@H]1CN([C@H](C)CO)C(=O)c2cccc(NS(=O)(=O)c3ccc(F)cc3)c2O[C@@H]1CN(C)S(=O)(=O)c1ccc(F)cc1	-0.42	0	-77	-3.3
10	C[C@@H]1CN([C@@H](C)CO)C(=O)c2cccc(NC(=O)NC3CCCCC3)c2O[C@H]1CN(C)S(=O)(=O)c1cccs1	0.12	4	16	-1.0
11	Cc1noc(C)c1S(=O)(=O)Nc1ccc2c(c1)CC(=O)N([C@@H](C)CO)C[C@@H](C)[C@@H](CN(C)S(C)(=O)=O)O2	-0.1	-13	1	0.6
12	CNC[C@H]1Oc2ccc(NC(=O)Nc3ccc4c(c3)OCO4)cc2C(=O)N([C@H](C)CO)C[C@H]1C	0.13	1	-27	0.2
13	C[C@@H]1CN([C@H](C)CO)C(=O)c2cccc(N(C)C)c2O[C@@H]1CN(C)Cc1ccccc1	-0.25	1	2	/
14	CN(C)/C=N/C1N=C(C2CC2)N(C)C(=O)N1 (stereo not drawn)	0.16	-3	-30	1.3
15	CCOC(=O)c1c(NC(=O)c2nc3ncccn3n2)sc2c1CCC(CC)C2 (stereo not drawn)	-0.05	13	-22	-1.3
16	Cc1ccc(S(=O)(=O)N(C)C[C@H]2Oc3ccc(NS(=O)(=O)c4cn(C)cn4)cc3CC(=O)N([C@@H](C)CO)C[C@@H]2C)cc1	-0.13	-1	-31	/
17	C=CCNC(=S)NC1(C)CCS(=O)(=O)C1 (stereo not drawn)	0.17	3	1	-0.4
18	Cc1nn(C)cc1CNC(=O)c1cnn2c(C(F)F)cc(C3CC3)nc12	/	-4	/	-0.4
19	C[C@H](CO)N1C[C@H](C)[C@H](CN(C)Cc2ccc(-c3ccccc3)cc2)Oc2c(NC(=O)NC3CCCCC3)cccc2C1=O	0.051	-1	-12	-4.5
20	Cc1c(CCC(=O)O)c(=O)oc2cc(OCC(=O)O)ccc12	/	-22	/	0.7
21	CC(C)CC(=O)N[C@H](C(=O)N[C@H](C(=O)N[C@@H](CC(C)C)[C@@H](O)CC(=O)N[C@@H](C)C(=O)N[C@@H](CC(C)C)[C@@H](O)CC(=O)O)C(C)C)C(C)C	0.28	-4	-43	4.3
22	C[C@H](CO)N1C[C@H](C)[C@@H](CN(C)S(=O)(=O)c2ccc(F)cc2)Oc2ccc(NC(=O)Cc3cn(C)c4ccccc34)cc2C1=O	-0.17	18	/	-0.5
23	C[C@H]1CN([C@@H](C)CO)C(=O)c2cc(NS(=O)(=O)c3cccs3)ccc2O[C@H]1CN(C)CC1CCCCC1	-0.29	7	42	0.7
24	Cc1noc(C)c1S(=O)(=O)Nc1ccc2c(c1)CC(=O)N([C@@H](C)CO)C[C@H](C)[C@@H](CN(C)Cc1ccc3c(c1)OCO3)O2	-0.14	-15	23	-2.2
25	COc1ccc(NC(=O)CSc2nc(C)cc(C(F)(F)F)n2)c([N+](=O)[O-])c1	/	-6	/	-0.7
26	Cc1ccc(S(=O)(=O)N(C)CC(=O)Nc2cccc(I)c2)cc1	/	-4	/	1.0
27	Cc1noc(C)c1NC(=O)Nc1cccc2c1O[C@@H](CN(C)Cc1ccc(C(F)(F)F)cc1)[C@H](C)CN([C@@H](C)CO)C2=O	0.12	-5	-15	/
28	N#C[C@@H]1O[C@H](COC(=O)c2ccccc2)[C@@H](OC(=O)c2ccccc2)[C@H]1OC(=O)c1ccccc1	-0.52	-5	/	0.6
29	CC(Oc1ccccc1)C(=O)Nc1cc([N+](=O)[O-])ccc1O (stereo not drawn)	/	100*	/	0.0
30	C[C@@H]1CN([C@H](C)CO)C(=O)c2cc(NS(=O)(=O)c3cccs3)ccc2O[C@H]1CN(C)S(C)(=O)=O	-0.16	-10	-7	/
31	Clc1ccc(-c2nc(Sc3nc(-c4cccs4)ns3)n[nH]2)cc1	-0.12	6	-29	-8.4
32	Cc1cc(C(=O)Nc2cccc3c2O[C@@H](CN(C)Cc2ccccc2)[C@H](C)CN([C@H](C)CO)C3=O)n(C)n1	-0.0001	26	28	/
33	Cc1noc(C)c1S(=O)(=O)N(C)C[C@H]1OCCCC[C@@H](C)Oc2ccc(N(C)C)cc2C(=O)N([C@H](C)CO)C[C@@H]1C	-0.35	16	10	-1.2
34	Cc1cccc(-n2c(SCC(=O)Nc3ccc(Br)cc3F)nnc2-c2ccccc2)c1	/	46	/	-11
35	COc1ccc(S(=O)(=O)N(C)C[C@@H]2Oc3ccc(NS(=O)(=O)c4ccc(F)cc4)cc3CC(=O)N([C@H](C)CO)C[C@@H]2C)cc1	0.16	-7	22	/
36	C[C@H](CO)N1C[C@H](C)[C@@H](CN(C)S(=O)(=O)c2ccccc2)Oc2ccc(NS(=O)(=O)c3cccs3)cc2C1=O	0.0035	-6	4	0.4
37	COc1ccc(NC(=O)N(C)C[C@@H]2Oc3c(NS(=O)(=O)c4ccc(F)cc4)cccc3C(=O)N([C@@H](C)CO)C[C@@H]2C)cc1	-0.38	8	32	-1.8
38	O=C(CSc1nc(Nc2ccccc2)nc(N2CCOCC2)n1)Nc1ccccc1Cl	/	-67	/	0.7
39	C[C@H]1CN([C@@H](C)CO)C(=O)c2cc(N(C)C)ccc2O[C@@H]1CN(C)S(=O)(=O)c1ccc(Cl)cc1	0.42	-3	4	0.7
40	CCCC(=O)Nc1cccc(N)c1	-0.058	-9	/	0.0
41	Cc1cc(C)c(S(=O)(=O)N(C)CC(=O)Nc2ccc(Cl)cc2Cl)c(C)c1	/	-20	/	0.7
42	O=C(COc1ccc(Br)cc1Cl)Nc1ccccc1CO	/	-13	/	-0.2
43	CC(C)NC(=O)Nc1ccc2c(c1)C(=O)N([C@@H](C)CO)C[C@@H](C)[C@@H](CN(C)Cc1ccc(-c3ccccc3)cc1)O2	-0.12	-7	/	-2.4
44	O=c1c2ccccc2[nH]c(=S)n1CCCn1ccnc1	/	2	/	-0.9
45	COc1ccccc1-n1c(SCC(=O)Nc2ccccc2C)nc2ccc(I)cc2c1=O	/	8	/	0.6
46	C[C@@H]1CN([C@H](C)CO)C(=O)c2cccc(NC(=O)c3cnccn3)c2O[C@@H]1CN(C)Cc1ccccc1	-0.3	-11	-18	0.0
47	COc1ccc(S(=O)(=O)N(C)C[C@@H]2Oc3ccc(NC(=O)C4CCCCC4)cc3CC(=O)N([C@H](C)CO)C[C@H]2C)cc1	-0.33	-4	-5	-1.0
48	O=C(Nc1ccc(Cl)cc1C(=O)NCc1cccnc1)c1ccco1	/	10	/	-1.9
49	C[C@@H]1CN([C@@H](C)CO)C(=O)Cc2cc(NC(=O)CCCN(C)C)ccc2O[C@@H]1CN(C)Cc1ccc(Oc2ccccc2)cc1	0.025	-1	-49	/
50	Cc1occc1C(=O)NCCc1ccc(S(N)(=O)=O)cc1	/	-23	/	3.5

Down the list, as entered above:
PD-1 reversal for nos. 41 to 50: 0.7, -0.2, -2.4, -0.9, 0.6, 0.0, -1.0, -1.9, /, 3.5

The listing continues:
item	SMILES	YB-1 expression	MITF inh	Hedgehog inh	PD-1 reversal
51	CC1OC(c2cc3oc(-c4ccccc4)cc(=O)c3c(O)c2O)CC(O)C1O (stereo not drawn)	0.031	-35	-16	-2.4
52	Cc1cc(Cl)ccc1OCCNS(=O)(=O)c1cc([N+](=O)[O-])ccc1C	/	-32	/	2.1
53	CCOc1ccc(C2C3=C(CCCC3=O)Nc3ncnn32)cc1 (stereo not drawn)	0.47	-10	3	0.1
54	C[C@@H]1CN([C@@H](C)CO)C(=O)c2cc(NS(C)(=O)=O)ccc2O[C@H]1CN(C)C(=O)Nc1ccccc1	0.058	-5	28	0.1
55	COC(=O)c1cccc(C(=O)Nc2cnc3ccccc3c2)n1	0.19	-9	-3	-0.8
56	CC1(C)CN=C(NC2CCCCC2)S1	0.13	-22	11	-0.2
57	COc1ccc(-n2c(SCC(=O)N3CCOCC3)nnc2-c2ccccc2)cc1	/	-11	/	1.8
58	C[C@H]1CN([C@@H](C)CO)C(=O)c2cccc(NC(=O)c3cnccn3)c2O[C@H]1CN(C)C	-0.41	-4	-5	/
59	C[C@@H]1CN([C@@H](C)CO)C(=O)Cc2cc(NC(=O)Nc3ccc4c(c3)OCO4)ccc2O[C@@H]1CN(C)S(=O)(=O)c1ccc(F)cc1	0.19	4	28	-1.3
60	CS(=O)(=NS(=O)(=O)c1ccccc1C(F)(F)F)c1ccc(Cl)cc1 (stereo not drawn)	-0.038	4	-11	-0.7
61	CCS(=O)(=O)c1ccc2nc(SCC(=O)n3c4c(c5ccccc53)CCCC4)oc2c1	/	-39	/	-3.0
62	Cc1ccc(Cc2cc(C)n[nH]c2=O)cc1	-0.065	-4	9	0.8
63	C[C@@H]1CN([C@H](C)CO)C(=O)c2cccc(NC(=O)Nc3ccc(C(F)(F)F)cc3)c2O[C@@H]1CN(C)CC1CCCCC1	0.0085	-6	-41	-4.8
64	O=C(O)c1cc2cccc(S(=O)(=O)N3CCCCCC3)c2cc1O	-0.14	18	-8	0.8
65	COc1ccc(S(=O)(=O)Nc2cccc3c2O[C@H](CN(C)C(=O)Nc2c(C)noc2C)[C@@H](C)CN([C@H](C)CO)C3=O)cc1	-0.68	3	-12	2.0
66	CS(=O)(=NS(=O)(=O)c1ccc(OC(F)(F)F)cc1)c1ccc(Cl)cc1 (stereo not drawn)	-0.044	-29	2	0.4
67	Cn1c(SCC(=O)n2c3c(c4ccccc42)CCCC3)nnc1-c1cccc([N+](=O)[O-])c1	/	-14	/	-0.6
68	O=C(CCCN1C(=O)c2cccc3cccc(c23)C1=O)Nc1ccccc1[N+](=O)[O-]	/	1	/	1.8
69	CC(CO)(CO)NC(=O)NC1CCCCC1	/	1	/	0.7
70	C[C@H]1CN([C@@H](C)CO)C(=O)c2cc(NC(=O)Nc3cccc4ccccc34)ccc2O[C@H]1CN(C)CC1CCCCC1	0.35	-24	/	-0.6
71	Cc1noc(C)c1NC(=O)Nc1ccc2c(c1)C(=O)N([C@@H](C)CO)C[C@H](C)[C@H](CN(C)C(=O)Nc1cccc3ccccc13)O2	-0.27	-7	/	4.6
72	Cc1noc(C)c1S(=O)(=O)N(C)C[C@H]1Oc2ccc(NC(=O)Cn3cnnn3)cc2CC(=O)N([C@H](C)CO)C[C@H]1C	-0.093	2	/	/

5 entries drawn at random from the list so far, as already listed:
item	SMILES	YB-1 expression	MITF inh	Hedgehog inh	PD-1 reversal
11	Cc1noc(C)c1S(=O)(=O)Nc1ccc2c(c1)CC(=O)N([C@@H](C)CO)C[C@@H](C)[C@@H](CN(C)S(C)(=O)=O)O2	-0.1	-13	1	0.6
9	C[C@@H]1CN([C@H](C)CO)C(=O)c2cccc(NS(=O)(=O)c3ccc(F)cc3)c2O[C@@H]1CN(C)S(=O)(=O)c1ccc(F)cc1	-0.42	0	-77	-3.3
39	C[C@H]1CN([C@@H](C)CO)C(=O)c2cc(N(C)C)ccc2O[C@@H]1CN(C)S(=O)(=O)c1ccc(Cl)cc1	0.42	-3	4	0.7
62	Cc1ccc(Cc2cc(C)n[nH]c2=O)cc1	-0.065	-4	9	0.8
58	C[C@H]1CN([C@@H](C)CO)C(=O)c2cccc(NC(=O)c3cnccn3)c2O[C@H]1CN(C)C	-0.41	-4	-5	/
